Compound activity deposited in PubChem by Johns Hopkins Ion Channel Center.
KCNQ2 enhance = potentiators of rat KCNQ2 potassium channel. Potassium voltage-gated channel subfamily KQT member 2 (Rattus norvegicus), O88943. CHO-K1 KCNQ2, FluxOR thallium flux fluorescence; active compounds read high. B-score at 10 µM. actives 0.54% (n = 310,000). AID 2239, 2010;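 active = fluorescence ratio B-score at least 3 SD of library B-scores, with initial fluorescence B-score within 3 SD, cut at about 5.3 in these data; same plate scores as AID 2156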;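 note: B-score of peak minus minimum over baseline fluorescence ratio after K+ and Tl+ stimulus; positive B-score means potentiation of KCNQ2 with more thallium influx and brighter signal; only the inactives scoring about 0 or higher are listed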
Target sequence (O88943 whole entry, looked up): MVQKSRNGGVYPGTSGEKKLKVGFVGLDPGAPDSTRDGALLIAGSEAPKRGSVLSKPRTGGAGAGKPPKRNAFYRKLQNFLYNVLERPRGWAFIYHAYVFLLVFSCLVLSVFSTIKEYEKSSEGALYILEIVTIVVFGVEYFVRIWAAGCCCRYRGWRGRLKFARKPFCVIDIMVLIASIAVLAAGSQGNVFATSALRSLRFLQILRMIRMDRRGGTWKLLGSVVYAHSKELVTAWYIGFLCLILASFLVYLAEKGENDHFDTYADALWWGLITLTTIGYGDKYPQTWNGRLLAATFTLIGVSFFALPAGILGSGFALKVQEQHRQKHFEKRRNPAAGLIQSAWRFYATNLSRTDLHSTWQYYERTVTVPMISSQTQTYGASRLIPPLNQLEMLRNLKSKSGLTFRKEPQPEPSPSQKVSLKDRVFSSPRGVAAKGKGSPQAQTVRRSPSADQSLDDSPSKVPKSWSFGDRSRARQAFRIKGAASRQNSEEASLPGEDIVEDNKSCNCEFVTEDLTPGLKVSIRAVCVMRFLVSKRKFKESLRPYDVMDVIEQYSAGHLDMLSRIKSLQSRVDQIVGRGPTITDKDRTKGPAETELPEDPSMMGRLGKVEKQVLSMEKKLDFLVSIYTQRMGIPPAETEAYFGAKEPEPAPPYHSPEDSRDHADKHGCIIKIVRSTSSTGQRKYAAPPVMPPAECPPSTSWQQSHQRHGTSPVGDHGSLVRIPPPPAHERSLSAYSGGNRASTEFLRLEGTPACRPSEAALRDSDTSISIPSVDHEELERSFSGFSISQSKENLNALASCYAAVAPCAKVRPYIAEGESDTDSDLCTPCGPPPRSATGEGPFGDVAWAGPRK
KCNQ2 enhance baseline = also measured in KCNQ2 enhance; calls as there; B-score; compound at 10 µM; measured here: initial fluorescence intensity artifact check;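 brightness before thallium and not channel activity; 0 = typical well and far values either way flag optical interference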
* = called active by the depositor.

SMILES | KCNQ2 enhance baseline | KCNQ2 enhance
COC(=O)c1ccc2c(C)c(C(C)(C)O)[nH]c2c1 | 1.1 | 2.1
O=C(CNC(=O)c1ccc(Br)o1)NCc1ccc(Cl)cc1Cl | -0.48 | 0.67
CCOc1ccc(Nc2ccc(C(=O)O)cc2[N+](=O)[O-])cc1 | -1.4 | 1.3
CC1CN(S(=O)(=O)c2ccccc2)C(C)N1C(=O)N1CCOCC1 (centres undefined) | 0.36 | 0.96
O=C(Cc1cccs1)N(c1ccc(Br)cc1)C1C=CS(=O)(=O)C1 (centres undefined) | 0.02 | 1.1
CC1CC1C(=O)OCC(=O)NC(=O)NCc1ccco1 (centres undefined) | -0.23 | 0.86
Cc1cc(C(=O)N/N=C/c2ccc(-c3ccc([N+](=O)[O-])cc3Cl)o2)n[nH]1 | 0.43 | 0.82
O=C(NCCN1CCOCC1)c1c[nH]c2ccc(S(=O)(=O)N3CCOCC3)cc2c1=O | -1.4 | 0.74
FC(F)(F)c1ccc(C2[C@H]3CN(Cc4cccnc4)[C@H](c4ccccc4)C34CC2(c2ccccc2)C4)cc1 (some centres undefined) | 0.74 | 0.17
CCn1ccnc1CN(C)C(=O)c1cc(COc2ccc(Cl)cc2OC)on1 | 0.64 | 0.76
CC1CCCN(S(=O)(=O)c2ccc(-c3ccc(=O)[nH]n3)o2)C1 (centres undefined) | 0.03 | 1.3
CC(Sc1ccc(Cl)cc1)C(=O)Nc1ccccc1C(=O)N1CCOCC1 (centres undefined) | 0.05 | 1.1
CC(C)(c1ccccc1)c1ccc(OCCCN2CCNCC2)cc1 | 4.4 | 2
CCc1ccc(NC(=O)CS(=O)CC(=O)NC(C)CCc2ccco2)cc1 (centres undefined) | -0.21 | 0.68
COc1ccc(N2C(=O)CC(N3CCN(c4ccc(S(=O)(=O)N5CCCC5)cc4)CC3)C2=O)cc1 (centres undefined) | 0.07 | 0.18
COc1ccc(/C=N/NC(=O)c2nc(Cl)c(Cl)c(N)c2Cl)cc1COc1ccccc1F | -0.82 | 1.7
CCCc1ccc(C(=O)NNc2cc(Cl)ccc2Cl)cc1 | 0.36 | 0.03
CCOc1cc(CNc2cccc3[nH]c(C)nc23)ccc1OC | 0.05 | 0.58
Cc1ccc(C)c(NC(=O)C2CCCC2)c1 | 0.17 | 0.81
COc1ccc(C(CCN2CCCC2)c2c(O)cc(OC)cc2OC)cc1 (centres undefined) | 0.01 | 0.36
CN(CCO)CC(O)CN(c1ccccc1)c1ccccc1 (centres undefined) | 0.67 | 1.2
CCc1sc(C(=O)Nc2nccs2)cc1C | 0.98 | 1.7
CCCn1c(=O)n(C)c(=O)c2c(SCC(=O)NC34CC5CC(CC(C5)C3)C4)nc(CC(C)C)nc21 | -0.66 | 4.4
CCCCn1c(SCC(=O)c2ccc(OCC)cc2)nc2cc(S(N)(=O)=O)ccc21 | 1 | 1.8
C/C(=C/CCC(C)[C@H]1CC[C@@]2(C)C3=C(CC[C@]12C)[C@@]1(C)CCC(=O)C(C)(C)[C@@H]1CC3)C(=O)O (some centres undefined) | 3.4* | 21*
COC(=O)CN(C)C(=O)c1ccc(OC2CCN(S(=O)(=O)N(C)C)CC2)cc1 | -1.2 | 0.83
CCCC(C(=O)NC1CCCC1)N(C(=O)c1snc(C(N)=O)c1N)c1ccc(F)cc1 (centres undefined) | 0.43 | 0.13
O=C(NCCc1ccccn1)C1CC(=O)N(Cc2ccccc2Cl)C1 (centres undefined) | 1.6 | 0.17
Cc1ccc(S(=O)(=O)CCc2nc3ccccc3n2CCC#N)cc1 | -1.4 | 0.73
CCC(C)(C)NC(=O)CN(C(=O)c1snc(C(N)=O)c1N)c1ccc2c(c1)OCO2 | 0.19 | 0.07
CCN(CC)S(=O)(=O)c1ccc(S(=O)(=O)NCc2cccs2)cc1 | 0.83 | 0.77
CC(C)(C)C1CCc2sc(-c3nnc(CCl)o3)cc2C1 (centres undefined) | 1.9 | 2
O=C(CCN1CCN(c2ccccc2)CC1)Nc1nccs1 | 0.86 | 1.6
O=c1[nH]c(/C=C\c2cccc(Cl)c2)nc(O)c1[N+](=O)[O-] | 0.03 | 0.33
Cc1ccc2nc(C)cc(N/N=C/c3cccnc3)c2c1 | 0.38 | 1.5
COc1cc(OC)c(C(=O)OCC(=O)c2cc(C)n(CC3CCCO3)c2C)cc1OC (centres undefined) | 0.96 | 1.1
CCS(=O)(=O)N1CCN(c2c(Cl)cccc2[N+](=O)[O-])CC1 | -2.1 | 2.7
CCOC(=O)[C@@H]1[C@H]2COc3cc(OC)ccc3[C@@H]2N2C(=O)N(c3ccc(C)cc3)C(=O)[C@@]12C | 0.48 | 1.8
COc1ccc(Br)cc1CN1CCCCCCC1 | -1.6 | 0.35
Nc1ccc[n+](CC(=O)c2ccccc2)c1 | -1.4 | 0.75

4 entries from above, field by field.
O=C(CCN1CCN(c2ccccc2)CC1)Nc1nccs1
  KCNQ2 enhance baseline: 0.86; KCNQ2 enhance: 1.6

O=c1[nH]c(/C=C\c2cccc(Cl)c2)nc(O)c1[N+](=O)[O-]
  KCNQ2 enhance baseline: 0.03; KCNQ2 enhance: 0.33

Cc1ccc2nc(C)cc(N/N=C/c3cccnc3)c2c1
  KCNQ2 enhance baseline: 0.38; KCNQ2 enhance: 1.5

COc1cc(OC)c(C(=O)OCC(=O)c2cc(C)n(CC3CCCO3)c2C)cc1OC (centres undefined)
  KCNQ2 enhance baseline: 0.96; KCNQ2 enhance: 1.1

Later entries
SMILES | KCNQ2 enhance baseline | KCNQ2 enhance
CC(=O)NC(CC(=O)OCC(=O)c1c(N)n(CC(C)C)c(=O)n(C)c1=O)c1ccccc1 (centres undefined) | 0.85 | 1.7
O=C1COc2ccc(C(=O)COC(=O)CNC(=O)C3CCCCC3)cc2N1 | -0.68 | 0.65
CN1CCC(=NNC(=O)CN(c2ccccc2)S(=O)(=O)c2ccccc2)CC1 | 1.1 | 0.54
O=C(CN1C(=O)CSc2ccc(S(=O)(=O)N3CCOCC3)cc21)NCc1cccnc1 | -0.98 | 0.34
Cc1[nH]c2ccccc2c1C(c1ccccn1)N1CCCC1 (centres undefined) | -0.47 | 0.25
O=C(Nc1nncs1)c1cccc(S(=O)(=O)N2CCc3ccccc32)c1 | -2 | 0.9
Cc1cccc(N2CCN(CCNC(=O)c3cc4c(s3)CS(=O)(=O)C4)CC2)c1C | -0.08 | 1.3
O=C(COC(=O)c1ccco1)NC1CCCC1 | -0.11 | 0.41
O=C(CCNS(=O)(=O)c1cccc2nsnc12)NCc1ccco1 | -0.77 | 1.4
Cc1ccc(N2CC(C(=O)Nc3cc(C(F)(F)F)ccc3N3CCCC3)CC2=O)cc1 (centres undefined) | -0.64 | 0.33
Cc1ccc2[nH]c(=O)c(CN(C)C(=O)c3ccccn3)cc2c1 | 0 | 0.78
S=C(NC1CCCCC1)NC1CC2CCC(C1)N2Cc1ccccc1 (centres undefined) | -0.02 | 2.5
CS(=O)(=O)N1CCC(Oc2ccccc2C(=O)N2CCCCC2CO)CC1 (centres undefined) | -0.4 | 0.76
CC(C)(C)c1csc(Sc2ccc([N+](=O)[O-])cn2)n1 | 0.02 | 0.89
Cc1cc(NC(c2cccnc2)c2ccc3cccnc3c2O)no1 (centres undefined) | 0.2 | 0.13
CCOc1ccccc1-n1c(SCC(=O)Nc2ccc(CC)cc2)nc2n[nH]c(C)c2c1=N | -0.89 | 0.4
O=C(C1CCC(CNc2c(N3CCCCC3)c(=O)c2=O)CC1)N1CCCC1 (centres undefined) | -0.13 | 1.5
CCc1nc(OCC(=O)c2ccccc2)c(C#N)c2c1COC(C)(C)C2 | -4.1* | 9.6*
CCC(CC)C(=O)Nc1c2c(nn1-c1ccc(OC)cc1)CS(=O)(=O)C2 | -0.7 | 1.1
CC(=O)OCc1c(C(F)(F)F)nn(C)c1Sc1ccccc1 | -0.31 | 0.09

Profiles from above. Screens in order: KCNQ2 enhance baseline, KCNQ2 enhance
Cc1cccc(N2CCN(CCNC(=O)c3cc4c(s3)CS(=O)(=O)C4)CC2)c1C as listed: -0.08, 1.3
C/C(=C/CCC(C)[C@H]1CC[C@@]2(C)C3=C(CC[C@]12C)[C@@]1(C)CCC(=O)C(C)(C)[C@@H]1CC3)C(=O)O (some centres undefined) as listed: 3.4*, 21*

Later entries
SMILES | KCNQ2 enhance baseline | KCNQ2 enhance
COc1ccc(C(=O)OCC(=O)c2cc(OC)ccc2OC)c(OC)c1 | 0.41 | 0.36
COc1ccc([N+](=O)[O-])cc1/C=N/NC(=O)Cc1ccccc1 | -0.77* | 6*
CS/C(=N\S(=O)(=O)c1cccs1)NC(=O)CSc1nc2ccccc2s1 | -2.5 | 0.77
Cc1ccc(S(=O)(=O)N(C)C)cc1NC(=O)COC(=O)/C=C/c1cccs1 | 0.99 | 0.51
COc1ccccc1N1CCN(c2ccc(-c3ccccc3)nn2)CC1 | 0.02 | 0.44
CCOC(=O)c1c(C)[nH]c(C)c1C(=O)CSc1nc(N)cc(=O)[nH]1 | -1.5 | 0.5
Cc1cccc(NC(=S)NNC(=O)c2csc(C)c2)c1 | -1.4 | 1.7
COc1ccccc1NC(=O)CCCCCN1C(=O)c2cccc([N+](=O)[O-])c2C1=O | -0.81 | 0.42
CCC(CO)N=CC1=C(O)CC(C)(C)CC1=O (centres undefined) | -0.61 | 1.5
O=C(COc1ccc2ccc(=O)oc2c1)Nc1cccnc1 | 1.5 | 0.51
Cc1ccc(S(=O)(=O)Nc2cc(C)nn2-c2ccccc2)cc1 | 2.4 | 1.5
O=C(COC(=O)C1=COCCO1)Nc1ccccc1Oc1ccccc1 | 1 | 0.59
COC(=O)c1ccc(NC(=O)Nc2ccc(OC)c(OC)c2)cc1 | 0 | 0.85
CCc1nnc(NC(=O)c2ccc(N(C)S(=O)(=O)c3ccccc3)cc2)s1 | 1.2 | 1.5
CC1=NNC(=O)C1C(c1cccc(O)c1)C(C#N)C#N (centres undefined) | 0.01 | 0.44
CCOc1ccc(S(=O)(=O)NCCC(=O)NCCOc2ccccc2OC)cc1 | -0.18 | 1.6
Cc1cccc(OCC(=O)Nc2ccc(S(=O)(=O)N3CCCC3)cc2)c1 | -0.09 | 0.26
COc1ccc(C/C(O)=C(\C#N)c2nc3ccccc3s2)cc1 | -0.79 | 1.3
O=C(O)c1ccc(/C=N/Nc2ccc(F)cc2F)cc1 | 7.6 | 0.08
Cn1cc([N+](=O)[O-])c(C(=O)Nc2ccc3nc(-c4ccccc4)[nH]c3c2)n1 | -1.1 | 1.2
O=C1c2cccc3cccc(c23)C(=O)N1CCCCCc1n[nH]c(=S)o1 | -0.93 | 1.2
COc1ccc2[nH]c(=O)c3c(c2c1)OC(C)(C)C=C3 | -0.28 | 3.7
CC(=O)C1=C(O)C(=O)N(c2nccs2)C1c1ccccc1 (centres undefined) | 2.3 | 0.34
CC(NS(=O)(=O)c1ccc2c(c1)OCCCO2)C(=O)O (centres undefined) | 1.1 | 0.43
Cc1cccc(NC(=O)CSc2nnc(C)c(C)n2)c1 | 1.2 | 2.1
Cn1cc(CN2CCC(n3nccc3NC(=O)c3ccccc3Cl)CC2)cn1 | -0.14 | 1.1
COc1ccccc1CCNC(=O)C(=O)NCC1CCCN1S(=O)(=O)c1ccccc1 (centres undefined) | -0.77 | 0.73
CC1CCCN(CCOCCOc2ccccc2-c2ccccc2)C1 (centres undefined) | 0.08 | 0.16
Cn1nccc1C(=O)NC1CCCc2c1cnn2-c1ccccc1F (centres undefined) | 0.57 | 0.43
Cc1cc(C(F)(F)F)c2sc(N)nc2n1 | 1.4 | 3.1
O=C(NC1CCCC1)C(c1ccccc1)N(C(=O)c1csnn1)C1CCCC1 (centres undefined) | 0.69 | 1.3
COc1ccc2c(c1)sc(N)[n+]2Cc1cc(C)cc2cccnc12 | -0.74 | 1.8
CCCN(C(=O)CSc1nnnn1C)c1c(N)n(Cc2ccccc2)c(=O)[nH]c1=O | -0.28 | 0.05
CC1(C)C/C(=N\O)C(C(O)c2cccc([N+](=O)[O-])c2)C(C)(C)N1 (centres undefined) | 0.43 | 1.1
Cc1cccc(C(C(=O)NC2CCCC2)N(C(=O)c2csnn2)C2CC2)c1 (centres undefined) | 1.1 | 0.11
COc1ccccc1CNC(=O)CCn1c(=O)[nH]c2ccsc2c1=O | -1.1 | 0.35
Cc1cc(C)c2cc(C(=O)Nc3ccc4c(c3)OCO4)[nH]c2c1 | -0.07 | 0.39
CC1CC(=O)Nc2cc([N+](=O)[O-])ccc2N1 (centres undefined) | 0.6 | 0.51
CC(C)CNC(=O)CC(=O)NN=C1CCCC1 | -2.7 | 0.42
O=C(NCCOc1nc(N2CCOCC2)nc(N2CCOCC2)n1)Nc1ccccc1 | 0.4 | 0.21
O=C1C(=O)N(CCCn2ccnc2)C(c2cccnc2)/C1=C(/O)c1ccc(F)cc1 (centres undefined) | 1.9 | 0.39
CN(c1ccc(C(=O)Nc2cccnc2)cc1)S(C)(=O)=O | -1.5 | 1.6
COc1ccccc1C(=O)Nc1cccc2c1CCCC2 | -2.6 | 0.56
Cc1ccc(Oc2nnc(-c3ccccc3)cc2C#N)cc1 | 0.69 | 0.32
Cc1ccc(SCC(=O)NCc2ccccc2)cc1 | 2.5 | 0.04
Cn1cc(CNC(=O)/C=C/c2ccc(Cl)cc2)cn1 | -0.44 | 0.98
COc1ccc(/C=N/Nc2nonc2N)cc1 | -1.3 | 0.68
O=C(CCC(=O)N1CCN(S(=O)(=O)c2ccc(Cl)cc2)CC1)Nc1ccc(Cl)cc1Cl | -0.19 | 0.1
COc1ccc(-c2nc(N/N=C(\C)c3ccc(O)cc3)c3ccccc3n2)cc1 | 0.02 | 1.1
[N-]=[N+]=NC[C@H](Cc1ccccc1)N1CC[C@@H](NC(=O)OCc2ccccc2)CCC1=O | 0.08 | 0.16
Cc1ccc(NC(=O)CCNS(=O)(=O)c2cccc3nsnc23)cc1 | -0.26 | 0.53
Cc1ccc(C)c(Oc2coc3cc(O)ccc3c2=O)c1 | -0.23 | 1.1
COc1ccc(C2C(C#N)C(C#N)N3CCCN23)cc1 (centres undefined) | -0.52 | 1

Only part of the results is shown, so the mix of outcomes need not match the whole.
